Vaccinia inh: blocks a specific stage of Vaccinia orthopoxvirus infection, primary screen, cell-based, single point | Vaccinia-infected cells, mCherry/Venus stage reporter fluorescence; hits give low values; some inactives read as strong as hits | activity change (mCherry), % (test concentration not listed) | hit rate 0.01% among 89,000 | AID 1053133, 2014;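 active = mCherry past -33% and 40 or more points under the early reporter, replicates agreeing; inconclusive = past -33% without that gap or agreement; tested in A549 cells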;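 note: scaled between vehicle wells and reference inhibitor wells; 23 nL library stock went into each well; one replicate is shown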
Vaccinia inh Venus: recorded beside Vaccinia inh, whose call it bears; activity change (Venus), %; measured here: Venus reporter, other viral stage;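 negative = less Venus signal; first of two replicates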
* hit, by the source's call; ? = inconclusive; . = not tested or not shown; & = joins results of further samples. Some of the compounds tested; rates above refer to the full screens.

Start of the data: the first three compounds as a preview:
SMILES	Vaccinia inh	Vaccinia inh Venus
C[C@@H]1CN([C@H](C)CO)C(=O)Cc2cc(NC(=O)C3CC3)ccc2O[C@H]1CN(C)S(=O)(=O)c1ccc(Cl)cc1	-5	-9
Cc1ccccc1-c1ccc2c(c1)O[C@@H](CN(C)Cc1ccc(C(=O)O)cc1)[C@@H](C)CN([C@@H](C)CO)S2(=O)=O	5	0
COc1cccc(S(=O)(=O)Nc2ccc3c(c2)[C@H]2C[C@@H](CC(=O)NC4CCCCC4)O[C@H](CO)[C@H]2O3)c1	-6	10

Results, from the start:
SMILES	Vaccinia inh	Vaccinia inh Venus
C[C@@H]1CN([C@H](C)CO)C(=O)Cc2cc(NC(=O)C3CC3)ccc2O[C@H]1CN(C)S(=O)(=O)c1ccc(Cl)cc1	-5	-9
Cc1ccccc1-c1ccc2c(c1)O[C@@H](CN(C)Cc1ccc(C(=O)O)cc1)[C@@H](C)CN([C@@H](C)CO)S2(=O)=O	5	0
COc1cccc(S(=O)(=O)Nc2ccc3c(c2)[C@H]2C[C@@H](CC(=O)NC4CCCCC4)O[C@H](CO)[C@H]2O3)c1	-6	10
CCS(=O)(=O)N1CC2(CN(C(=O)c3ccc(F)cc3)[C@@H](CO)c3c2c2ccc(OC)cc2n3C)C1	5	-5
O=C(N[C@H]1CC[C@@H](CCNC(=O)C2CCCC2)O[C@H]1CO)c1ccncc1	1	19
CO[C@@H]1CN(C)C(=O)c2ccc(NC(C)=O)cc2OC[C@@H](C)N(Cc2ccccn2)C[C@@H]1C	20	14
C[C@H](CO)N1C[C@H](C)[C@H](CN(C)Cc2ccc(C(=O)O)cc2)Oc2c(NC(=O)C3CCOCC3)cccc2C1=O	16	12
CC=Cc1ccc2n(c1=O)C[C@@H]1[C@@H](CO)[C@H](C(=O)NCC(F)(F)F)[C@H]2N1C(=O)C1CCC1 (mixture of isomers)	27	13
CC(C)NC(=O)N(C)C[C@H]1Oc2ncc(C#Cc3ccccc3F)cc2C(=O)N([C@@H](C)CO)C[C@H]1C	-8	-5
CN1C(=O)c2cc(NC(=O)C3CCOCC3)ccc2OC[C@H]2O[C@H](CC(=O)O)CC[C@H]21	12	10
O=C(c1ccncc1)N1CC(=O)N2[C@H](CO)[C@H](c3ccc(-c4cccnc4)cc3)[C@@H]2C1	16	11
CNC[C@@H]1Oc2cc(C#Cc3ccc(F)cc3)ccc2S(=O)(=O)N([C@@H](C)CO)C[C@H]1C	?	.
C[C@H]1CCCCO[C@@H](CN(C)Cc2ccccc2)[C@@H](C)CN([C@@H](C)CO)C(=O)c2cc(NC(=O)Nc3ccc4c(c3)OCO4)ccc2O1	?	.
CN1CCN(C(=O)C[C@H]2CC[C@H]3[C@@H](COC[C@H](O)CN3C(=O)C3CCOCC3)O2)CC1	11	15
C[C@@H]1CN([C@H](C)CO)C(=O)c2cc(NC(=O)CCC(F)(F)F)ccc2O[C@@H](C)CCCCO[C@H]1CN(C)S(=O)(=O)c1ccc(F)cc1	?	.
C[C@H](O)C#Cc1cnc2c(c1)C(=O)N([C@H](C)CO)C[C@H](C)[C@@H](CN(C)C(=O)c1ccccc1)O2	21	9
CCCN(C)C[C@@H]1Oc2cc(C#Cc3ccccc3F)ccc2S(=O)(=O)N([C@@H](C)CO)C[C@@H]1C	-23	-15
COc1ccc(S(=O)(=O)Nc2ccc3c(c2)CC(=O)N([C@H](C)CO)C[C@H](C)[C@@H](CN(C)Cc2ccccc2)O3)cc1	-35	-21
C[C@@H]1CN([C@@H](C)CO)C(=O)c2cc(NC(=O)Nc3ccc4c(c3)OCO4)ccc2O[C@H]1CN(C)C(=O)NC1CCCCC1	-7	14
C[C@@H]1CN([C@H](C)CO)C(=O)Cc2cc(NS(=O)(=O)c3cn(C)cn3)ccc2O[C@@H]1CN(C)C(=O)Nc1ccccc1	-15	1
C[C@@H]1CN([C@H](C)CO)C(=O)c2cc(-c3cncnc3)cnc2O[C@H]1CN(C)Cc1cncnc1	7	6
O=C(CCN1CCCCC1)N[C@H]1CC[C@@H](CCn2cc(-c3ccc(F)cc3)nn2)O[C@H]1CO	4	-3
CO[C@H]1CN(C)C(=O)c2cc(NS(C)(=O)=O)ccc2OC[C@H](C)N(CC2CCCCC2)C[C@@H]1C	-16	-10
C[C@@H]1CCCCO[C@@H](CN(C)CC2CCCCC2)[C@H](C)CN([C@H](C)CO)C(=O)c2cc(NS(=O)(=O)c3ccc(F)cc3)ccc2O1	?	.
COC(=O)[C@H]1[C@H](CO)[C@H]2Cn3c(ccc(-c4cccc(OC)c4)c3=O)[C@H]2N1Cc1nccs1	14	5
CO[C@@H]1CN(C)C(=O)c2cc(NS(=O)(=O)CC(F)(F)F)ccc2OC[C@@H](C)N(Cc2ccccn2)C[C@H]1C	-9	-6
CO[C@H]1CN(C)C(=O)c2ccc(NC(=O)C3CCCCC3)cc2OC[C@@H](C)N(Cc2cccnc2)C[C@@H]1C	-15	-13
C[C@@H]1CN([C@@H](C)CO)S(=O)(=O)c2ccc(-c3cccc(F)c3)cc2O[C@@H]1CN(C)C	-8	-10
C[C@H](CO)N1C[C@H](C)[C@H](CN(C)S(=O)(=O)c2cn(C)cn2)Oc2c(NS(C)(=O)=O)cccc2C1=O	8	3
COCC#Cc1ccc2c(c1)O[C@@H](CN(C)C(=O)CN(C)C)[C@H](C)CN([C@@H](C)CO)S2(=O)=O	20	14
C/C=C/c1cnc2c(c1)C(=O)N([C@@H](C)CO)C[C@H](C)[C@@H](CN(C)Cc1cccc(C(=O)O)c1)O2	13	8
C[C@@H]1CN([C@H](C)CO)C(=O)Cc2cc(NC(=O)C3CC3)ccc2O[C@@H]1CN(C)S(=O)(=O)c1ccccc1	-7	0
CCCNC(=O)N1C[C@@H]2[C@H](c3ccccc31)[C@H](CO)N2C(=O)NCCC	8	4
Cc1ccc(S(=O)(=O)Nc2ccc3c(c2)C(=O)N([C@@H](C)CO)C[C@H](C)[C@@H](CN(C)S(=O)(=O)c2ccccc2)OCCCC[C@@H](C)O3)cc1	-15	-13
CO[C@H]1CN(C)C(=O)c2cc(NC(=O)Cc3ccccc3)ccc2OC[C@H](C)N(CC2CC2)C[C@@H]1C	-3	3
C[C@@H]1CCCCO[C@H](CN(C)Cc2ccc(Cl)c(Cl)c2)[C@H](C)CN([C@@H](C)CO)C(=O)c2cc(NC(=O)Nc3ccccc3)ccc2O1	14	14
C[C@@H]1CCCCO[C@H](CN(C)S(=O)(=O)c2cccs2)[C@@H](C)CN([C@H](C)CO)C(=O)c2cc(NS(=O)(=O)c3ccc(F)cc3)ccc2O1	-4	-8
CC(=O)N1[C@H](CO)[C@@H](c2ccc(C3=CCCC3)cc2)C12CN(C(=O)C1CC1)C2	3	5
C[C@H]1CN([C@@H](C)CO)C(=O)Cc2cc(NC(=O)C3CCCCC3)ccc2O[C@H]1CN(C)Cc1ccc(C(=O)Nc2ccccc2N)cc1	-19	-22
C[C@@H]1CN([C@H](C)CO)C(=O)c2cccc(NS(=O)(=O)c3ccc(Cl)cc3)c2O[C@H]1CN(C)C(=O)Nc1ccc2c(c1)OCO2	17	12
C[C@@H]1CN([C@H](C)CO)C(=O)c2cc(NC(=O)Nc3ccc(F)cc3)ccc2O[C@@H](C)CCCCO[C@@H]1CN(C)Cc1ccc2c(c1)OCO2	?	.
CCS(=O)(=O)Nc1ccc2c(c1)C(=O)N(C)C[C@@H](OC)[C@@H](C)CN(C(=O)C1CC1)[C@@H](C)CO2	7	7
OC[C@@H]1[C@H](c2ccc(-c3ccc(F)cc3)cc2)[C@@H]2CN(Cc3cccnc3)CCCCN12	-4	-10
CN1C(=O)c2cc(NC(=O)c3cnccn3)ccc2OC[C@H]2O[C@@H](CC(=O)NCC3CC3)CC[C@@H]21	1	3
C[C@@H]1CN([C@@H](C)CO)C(=O)c2cccc(NS(=O)(=O)c3ccccc3)c2O[C@H]1CN(C)Cc1ccc(C(=O)O)cc1	19	24
CO[C@@H]1CN(C)C(=O)c2cc(NC(C)=O)ccc2OC[C@@H](C)N(Cc2cc(F)ccc2F)C[C@@H]1C	13	3
C[C@H](CO)N1C[C@H](C)[C@@H](CN(C)S(=O)(=O)c2ccccc2)OCCCC[C@H](C)Oc2ccc(NC(=O)Nc3cccc4ccccc34)cc2C1=O	16	15
C[C@@H]1CN([C@@H](C)CO)C(=O)c2cc(NC(=O)Cc3ccccc3)ccc2O[C@@H](C)CCCCO[C@@H]1CN(C)C(=O)c1ccccc1	-20	-18
COc1cccc(C#Cc2ccc3c(c2)O[C@H](CN(C)S(=O)(=O)c2ccccc2F)[C@H](C)CN([C@H](C)CO)S3(=O)=O)c1	-3&-2	-3&-3
CCCNC(=O)C[C@@H]1C[C@H]2c3cc(NC(=O)Nc4ccc(F)cc4)ccc3O[C@H]2[C@H](CO)O1	3	1
CC(=O)N(CC(C)C)C[C@@H]1[C@H](c2ccc(C3=CCCC3)cc2)[C@H](CO)N1C(C)=O	-3	2
CO[C@H]1CN(C)C(=O)c2cc(NS(=O)(=O)CC(F)(F)F)ccc2OC[C@H](C)N(Cc2ccccn2)C[C@H]1C	-11	1
COc1ccc(NC(=O)Nc2cccc3c2O[C@@H](CN(C)C(=O)NC(C)C)[C@@H](C)CN([C@@H](C)CO)C3=O)cc1	-5	-6
C[C@@H]1CN([C@@H](C)CO)C(=O)c2cccc(NC(=O)CCCCCC(=O)Nc3ccccc3N)c2O[C@H]1CN(C)S(C)(=O)=O	18	14
C[C@H](CO)N1C[C@H](C)[C@H](CN(C)C(=O)Cc2ccccc2)Oc2ncc(-c3ccccc3)cc2C1=O	-1	0
C[C@@H]1CCCCO[C@@H](CN(C)C(=O)C2CCCCC2)[C@H](C)CN([C@@H](C)CO)C(=O)c2cc(NS(=O)(=O)c3cccs3)ccc2O1	?	.
CN1c2ccc(C3=CCCCC3)cc2[C@@H]2[C@@H](CCN2C(=O)C2CC2)[C@@H]1CO	-24	-22
Cc1noc(C)c1S(=O)(=O)Nc1ccc2c(c1)C(=O)N([C@H](C)CO)C[C@H](C)[C@@H](CN(C)Cc1ccc(Cl)c(Cl)c1)OCCCC[C@H](C)O2	?	.
C[C@@H](NC(=O)C[C@H]1CC[C@@H]2[C@H](COC[C@H](O)CN2Cc2ccc(C(F)(F)F)cc2)O1)c1ccccc1	-8	-8
Cc1ccc(S(=O)(=O)N(C)C[C@@H]2OCCCC[C@@H](C)Oc3ccc(NC(=O)Cc4ccccc4)cc3C(=O)N([C@@H](C)CO)C[C@H]2C)cc1	-23	-8

A portion of the results above, as a working copy:
SMILES	Vaccinia inh	Vaccinia inh Venus
C[C@@H]1CN([C@H](C)CO)C(=O)c2cc(NC(=O)Nc3ccc(F)cc3)ccc2O[C@@H](C)CCCCO[C@@H]1CN(C)Cc1ccc2c(c1)OCO2	?	.
CCS(=O)(=O)Nc1ccc2c(c1)C(=O)N(C)C[C@@H](OC)[C@@H](C)CN(C(=O)C1CC1)[C@@H](C)CO2	7	7
OC[C@@H]1[C@H](c2ccc(-c3ccc(F)cc3)cc2)[C@@H]2CN(Cc3cccnc3)CCCCN12	-4	-10
CN1C(=O)c2cc(NC(=O)c3cnccn3)ccc2OC[C@H]2O[C@@H](CC(=O)NCC3CC3)CC[C@@H]21	1	3
C[C@@H]1CN([C@@H](C)CO)C(=O)c2cccc(NS(=O)(=O)c3ccccc3)c2O[C@H]1CN(C)Cc1ccc(C(=O)O)cc1	19	24
CO[C@@H]1CN(C)C(=O)c2cc(NC(C)=O)ccc2OC[C@@H](C)N(Cc2cc(F)ccc2F)C[C@@H]1C	13	3
C[C@H](CO)N1C[C@H](C)[C@@H](CN(C)S(=O)(=O)c2ccccc2)OCCCC[C@H](C)Oc2ccc(NC(=O)Nc3cccc4ccccc34)cc2C1=O	16	15

The results go on:
SMILES	Vaccinia inh	Vaccinia inh Venus
COc1ccc(NC(=O)Nc2ccc3c(c2)CC(=O)N([C@H](C)CO)C[C@@H](C)[C@H](CN(C)C(=O)Nc2ccccc2)O3)cc1	-5	14
COc1ccc(S(=O)(=O)N(C)C[C@@H]2Oc3ccc(NS(=O)(=O)c4c(C)noc4C)cc3CC(=O)N([C@H](C)CO)C[C@H]2C)cc1	16	3
CCC(=O)N1[C@H](CO)[C@@H](c2ccc(/C=C/c3ccccc3)cc2)C12CN(S(C)(=O)=O)C2	-20	-2
COc1ccccc1NC(=O)N[C@@H]1C=C[C@H](CC(=O)N2CCC(Cc3ccccc3)CC2)O[C@@H]1CO	-21	-18
COc1ccc2c3c([nH]c2c1)[C@@H](CO)N(Cc1ccccc1)CC31CCN(Cc2cncnc2)CC1	-13	-20
C[C@@H]1CN([C@H](C)CO)C(=O)c2cc(NC(=O)Cc3cn(C)c4ccccc34)ccc2O[C@H]1CN(C)C(=O)Nc1ccccc1	7	-2
CC(C)C#Cc1cnc2c(c1)C(=O)N([C@H](C)CO)C[C@@H](C)[C@H](CN(C)C(=O)CC1CC1)O2	-4	-3
OC[C@@H]1[C@@H](c2ccccc2)C2(CN(Cc3cccnc3)C2)N1Cc1ccncc1	13	16
C[C@@H]1CCCCO[C@@H](CN(C)Cc2ccncc2)[C@H](C)CN([C@@H](C)CO)C(=O)c2cc(NC(=O)CCCN(C)C)ccc2O1	5	9
COc1cccc(-c2ccc([C@H]3[C@H]4CN(C(=O)Cc5ccncc5)CCCCN4[C@H]3CO)cc2)c1	?	.
Cc1noc(C)c1NC(=O)N(C)C[C@H]1Oc2c(NS(=O)(=O)c3ccc(F)cc3)cccc2C(=O)N([C@H](C)CO)C[C@@H]1C	3	9
COc1ccc(NC(=O)Nc2cccc3c2O[C@@H](CN(C)C(=O)Nc2ccc(OC)cc2)[C@@H](C)CN([C@@H](C)CO)C3=O)cc1	8	10
O=C(C[C@H]1CC[C@@H]2[C@H](COC[C@@H](O)CN2Cc2cc(F)cc(F)c2)O1)Nc1nccs1	-22	-17
CN(C)C(=O)c1ccc(-c2ccccc2[C@H]2[C@@H](CO)N(C(=O)C3CCCCC3)[C@H]2C#N)cc1	9	3
CN1[C@@H]2Cn3c(ccc(-c4cccc(F)c4)c3=O)[C@H]1[C@@H](C(=O)Nc1nccs1)[C@@H]2CO	14	1
C[C@@H]1CN([C@H](C)CO)C(=O)c2cc(NS(=O)(=O)c3cn(C)cn3)ccc2O[C@@H](C)CCCCO[C@H]1CN(C)S(=O)(=O)c1ccc(F)cc1	22	13

Screening data (PubChem BioAssay)
